# FGF22 binding: FGF22 (human) thermal shift binding. Q9HCT0. recombinant FGF22 thermal shift, SYPRO orange fluorescence; percent of sucrose octasulfate shift, DMSO zero. calls only at 9.99 µM. 340,000 compounds, 1.5% hits. AID 651658;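 active means melting point raised past a set limit in the mean and every replicate; three in four hits are not shown here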
# Target sequence (Q9HCT0 whole entry, looked up): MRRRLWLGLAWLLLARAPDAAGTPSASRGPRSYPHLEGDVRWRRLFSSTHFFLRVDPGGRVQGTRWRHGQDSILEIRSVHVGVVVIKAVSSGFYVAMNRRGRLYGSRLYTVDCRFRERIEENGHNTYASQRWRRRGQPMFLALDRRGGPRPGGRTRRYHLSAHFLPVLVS
# MLL AF4-AF9 inh: blocks AF4 peptide binding to human AF9; P42568; inhibition, % at 10 µM; AlphaScreen, biotin-AF4 peptide binding to FLAG-AF9; 350,000 compounds, 0.47% hits;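 active means every replicate reaching a set inhibition limit, whatever the replicate mean, cut at about 25% in these data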;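 further: 0% = plate neutral control median and 100% = total signal loss; the record names both 10 and 1 µM as test concentration; the first replicate is given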
# Target sequence (P42568 whole entry, looked up): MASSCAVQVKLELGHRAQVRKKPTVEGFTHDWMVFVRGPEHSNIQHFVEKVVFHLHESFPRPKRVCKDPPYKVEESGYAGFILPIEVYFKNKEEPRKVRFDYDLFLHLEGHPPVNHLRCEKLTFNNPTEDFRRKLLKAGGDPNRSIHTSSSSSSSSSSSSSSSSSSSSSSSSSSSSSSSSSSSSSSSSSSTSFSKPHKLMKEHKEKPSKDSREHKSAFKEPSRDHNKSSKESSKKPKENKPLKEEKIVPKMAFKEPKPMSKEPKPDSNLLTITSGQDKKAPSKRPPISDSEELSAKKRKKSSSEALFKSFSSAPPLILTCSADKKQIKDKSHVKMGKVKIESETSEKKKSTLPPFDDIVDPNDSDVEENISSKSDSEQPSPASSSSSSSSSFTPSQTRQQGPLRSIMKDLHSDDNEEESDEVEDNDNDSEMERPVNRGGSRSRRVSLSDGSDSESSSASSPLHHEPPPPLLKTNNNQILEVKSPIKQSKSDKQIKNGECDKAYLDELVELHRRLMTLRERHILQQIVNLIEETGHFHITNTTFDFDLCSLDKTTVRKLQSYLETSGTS
# The depositor's hits bear a star; i = inactive; / = not tested or not shown; & = joins results of further samples.
SMILES,FGF22 binding,MLL AF4-AF9 inh
COc1ccc2c3c([nH]c2c1)[C@@H](CO)N(C(=O)c1ccccc1)CC31CCN(Cc2cccnc2)CC1,i,-1.7
Cc1noc(C)c1S(=O)(=O)Nc1ccc2c(c1)C(=O)N([C@H](C)CO)C[C@@H](C)[C@@H](CN(C)Cc1ccncc1)OCCCC[C@@H](C)O2,i,-1.5
C[C@@H]1CN([C@@H](C)CO)C(=O)c2cc(C#CCN(C)C)cnc2O[C@H]1CN(C)C(=O)c1cccc(F)c1,i,-3.6
C[C@H](CO)N1C[C@H](C)[C@H](CN(C)C(=O)c2cccc(F)c2)Oc2ncc(/C=C/c3ccccc3)cc2C1=O,i,5.5
C[C@H](CO)N1C[C@H](C)[C@@H](CN(C)Cc2ccc(-c3ccccc3)cc2)Oc2ccc(NC(=O)c3ccncc3)cc2CC1=O,i,16
C[C@@H]1CN([C@H](C)CO)C(=O)c2cc(NC(=O)Nc3ccccc3)ccc2O[C@H]1CN(C)C,i,-0.4
C[C@@H]1CN([C@H](C)CO)C(=O)c2cc(NC(=O)Nc3ccccc3)ccc2O[C@@H](C)CCCCO[C@@H]1CN(C)Cc1ccccc1,i,7.0
COc1ccc(NC(=O)Nc2ccc3c(c2)CC(=O)N([C@H](C)CO)C[C@@H](C)[C@@H](CN(C)Cc2ccc(-c4ccccc4)cc2)O3)cc1,i,0.2
COc1ccc(S(=O)(=O)N(C)C[C@H]2OCc3ccccc3-c3c(n(C)c4ccccc34)C(=O)N([C@H](C)CO)C[C@@H]2C)cc1,i,-5.8
CO[C@H]1CN(C)C(=O)c2cc(NC(=O)CC(F)(F)F)ccc2OC[C@@H](C)N(S(=O)(=O)c2cn(C)cn2)C[C@@H]1C,i,-0.2
O=C1O[C@H](c2ccccc2)[C@H](c2ccccc2)N2[C@H]1[C@@H](C(=O)N1CCCCCCC1)[C@]1(C(=O)Nc3ccccc31)[C@H]2c1ccccc1OCCO,i,0.7
CC=Cc1ccc2n(c1=O)C[C@@H]1[C@@H](CO)[C@H](C(=O)NC3CCC3)N[C@H]21 (mixture of isomers),i,0.7
COc1ccc(C#Cc2cnc3c(c2)C(=O)N([C@@H](C)CO)C[C@H](C)[C@@H](CN(C)C(=O)c2ccccc2F)O3)cc1,i,-2.4
O=C(C[C@@H]1C[C@H]2c3cc(NC(=O)CC4CC4)ccc3O[C@H]2[C@H](CO)O1)NCCN1CCCCC1,i,0.8
O=C(c1ccccc1)N1C[C@@H]2[C@H](c3ccccc31)[C@H](CO)N2C(=O)CN1CCOCC1,i,-0.5
C=CCN1C(=O)[C@@]2(O[C@@H](CCn3cc([C@H](O)c4ccccc4)nn3)[C@H]([Si](C)(C)c3ccc(OC)cc3)[C@H]2C)c2ccccc21,i,0.6
COc1ccccc1NC(=O)C[C@H]1CC[C@H]2[C@@H](COc3ccc(NC(C)=O)cc3C(=O)N2C)O1,i,-1.5
C=CCN1C(=O)c2n[nH]c(COC)c2C1c1ccc(C)cc1 (stereo not given),/,-3.9
COCC(=O)Nc1ccc2c(c1)C(=O)N(C)[C@H]1CC[C@@H](CC(=O)NCC3CC3)O[C@@H]1CO2,i,0.6
CCOC(=O)C1=C(C(=O)OCC)C2N(Cc3ccc(C(F)(F)F)cc3)c3ccccc3[C@@]23C[C@@H](C(=O)OC)N(S(=O)(=O)c2ccccc2C)C3=N1 (stereo not given in full),/,-4.5

# Some of the entries so far, as tab-separated lines.
structure	FGF22 binding	MLL AF4-AF9 inh
O=C1O[C@H](c2ccccc2)[C@H](c2ccccc2)N2[C@H]1[C@@H](C(=O)N1CCCCCCC1)[C@]1(C(=O)Nc3ccccc31)[C@H]2c1ccccc1OCCO	i	0.7
COCC(=O)Nc1ccc2c(c1)C(=O)N(C)[C@H]1CC[C@@H](CC(=O)NCC3CC3)O[C@@H]1CO2	i	0.6
CC=Cc1ccc2n(c1=O)C[C@@H]1[C@@H](CO)[C@H](C(=O)NC3CCC3)N[C@H]21 (mixture of isomers)	i	0.7
CCOC(=O)C1=C(C(=O)OCC)C2N(Cc3ccc(C(F)(F)F)cc3)c3ccccc3[C@@]23C[C@@H](C(=O)OC)N(S(=O)(=O)c2ccccc2C)C3=N1 (stereo not given in full)	/	-4.5

# Following part:
SMILES,FGF22 binding,MLL AF4-AF9 inh
CCCC#Cc1ccc([C@@H]2[C@H]3CN(C(=O)Nc4cccc(F)c4)CC(=O)N3[C@H]2CO)cc1,i,2.4
COc1ccc2c3c(n(C)c2c1)[C@@H](CO)NCC31CN(C(=O)Nc2ccc(F)cc2F)C1,i,9.1
C/C=C/c1ccc([C@H]2[C@@H](CO)N3CCCCN(S(=O)(=O)c4cccc(C)c4)C[C@@H]23)cc1,i,3.9
CCCC#Cc1cnc2c(c1)C(=O)N([C@@H](C)CO)C[C@H](C)[C@H](CN(C)S(=O)(=O)c1cccc(OC)c1)O2,i,0.5
O=C(c1cnccn1)N1C[C@H]2[C@@H](c3ccccc31)[C@H](CO)N2C(=O)CC1CC1,i,-2.7
CO[C@H]1CN(C)C(=O)c2ccc(NC(=O)C3CCCC3)cc2OC[C@H](C)N(C(C)=O)C[C@H]1C,i,0.3
C[C@H](CO)N1C[C@H](C)[C@@H](CN(C)Cc2ccc(C(=O)Nc3ccccc3N)cc2)Oc2ccc(NC(=O)Nc3ccc(F)cc3)cc2CC1=O,i,-44
COc1ccccc1CNC(=O)C[C@@H]1C[C@H]2c3cc(NC(=O)Nc4ccc(C(F)(F)F)cc4)ccc3O[C@H]2[C@H](CO)O1,i,1.6
C[C@H](NC(=O)C[C@H]1C[C@@H]2c3cc(NC(=O)NC4CCCC4)ccc3O[C@@H]2[C@@H](CO)O1)c1ccccc1,i,-1.9
COc1cccc(-c2ccc3c(c2)[C@H]2[C@H](CCN2C(=O)c2ccc(F)cc2)[C@H](CO)N3)c1,i,-4.4
CCC(=O)N1[C@H](CO)[C@H](c2ccccc2)C12CN(C(=O)NC1CCCC1)C2,i,-3.3
COc1ccc(C#Cc2cnc3c(c2)C(=O)N([C@H](C)CO)C[C@H](C)[C@H](CN(C)S(=O)(=O)c2ccc(F)cc2)O3)cc1OC,i,1.4
O=C(C[C@H]1CC[C@H]2[C@@H](COC[C@@H](O)CN2C(=O)c2cnccn2)O1)NCc1ccccc1,i,-2.2
CC(C)NC(=O)N(C)C[C@@H]1Oc2c(NC(=O)c3ccncc3)cccc2C(=O)N([C@@H](C)CO)C[C@H]1C,i,-2.8
C[C@@H]1CN([C@H](C)CO)C(=O)Cc2cc(NC(=O)CCCCCC(=O)Nc3ccccc3N)ccc2O[C@H]1CN(C)C(=O)Nc1ccc(F)cc1,i,0.0
COc1ccc2c3c(n(C)c2c1)[C@@H](CO)N(C(=O)CC1CC1)CC31CN(Cc2nccs2)C1,i,2.6
COCC(=O)N1CC2(CN(Cc3ccc(OC)cc3)C2)c2c([nH]c3cc(OC)ccc23)[C@H]1CO,i,-0.3
C[C@H]1CN([C@@H](C)CO)C(=O)c2cc(NC(=O)Cc3cn(C)c4ccccc34)ccc2O[C@@H]1CN(C)CC1CC1,i,19
C[C@@H]1CN([C@H](C)CO)C(=O)c2cccc(NS(=O)(=O)c3ccccc3)c2O[C@H]1CN(C)C(=O)Nc1ccc(C(F)(F)F)cc1,i,-0.4
O=C(NCC[C@H]1CC[C@H](NC(=O)c2cnccn2)[C@H](CO)O1)c1ccc2c(c1)OCO2,i,-1.4
C[C@@H]1CCCCO[C@@H](CN(C)C(=O)Nc2ccc(C(F)(F)F)cc2)[C@@H](C)CN([C@H](C)CO)C(=O)c2cc(NS(=O)(=O)c3ccc(F)cc3)ccc2O1,i,-0.4
CC=Cc1ccc2n(c1=O)C[C@@H]1[C@@H](CO)[C@H](C(=O)NCc3ccccc3)[C@H]2N1C (mixture of isomers),i,-0.8
O=C(C1CCC1)N1CCCCN2[C@H](CO)[C@H](c3ccc(-c4ccncc4)cc3)[C@H]2C1,i,-3.0
CS(=O)(=O)N1CCCCN2[C@H](CO)[C@H](c3ccc(C4=CCCC4)cc3)[C@@H]2C1,i,-4.5
CO[C@@H]1CN(C)C(=O)c2cc(NS(=O)(=O)c3ccc(F)cc3)ccc2OC[C@H](C)NC[C@@H]1C,i,-4.4
COCC(=O)N(C)C[C@@H]1Oc2cc(-c3ccc(F)cc3)ccc2S(=O)(=O)N([C@H](C)CO)C[C@@H]1C,i,-2.2
CCCNC(=O)C[C@H]1C[C@@H]2c3cc(NC(=O)COC)ccc3O[C@@H]2[C@H](CO)O1,i,-1.1
C[C@@H]1CN([C@@H](C)CO)C(=O)c2cc(NC(=O)Nc3ccc(F)cc3)ccc2O[C@@H](C)CCCCO[C@H]1CN(C)C(=O)c1ccccc1,i,-11
CCCNC(=O)N(C)C[C@H]1Oc2ncc(C#CC3CCCCC3)cc2C(=O)N([C@@H](C)CO)C[C@@H]1C,i,-0.8
C/C=C/c1ccc2c(c1)O[C@@H](CN(C)C(=O)c1cccnc1)[C@@H](C)CN([C@@H](C)CO)S2(=O)=O,i,-3.7
COc1cccc(S(=O)(=O)N2CCCCN3[C@H](CO)[C@H](c4ccc(-c5cncnc5)cc4)[C@@H]3C2)c1,i,-5.8
C[C@@H]1CN([C@H](C)CO)C(=O)c2cc(NC(=O)c3ccccc3)ccc2O[C@@H](C)CCCCO[C@@H]1CN(C)C(=O)C1CCCCC1,i,-0.4
COc1ccc(NC(=O)N(C)C[C@@H]2Oc3c(NC(=O)Nc4cccc5ccccc45)cccc3C(=O)N([C@@H](C)CO)C[C@H]2C)cc1,i,8.1
O=C(C[C@H]1C[C@@H]2c3cc(NC(=O)C4CCOCC4)ccc3O[C@@H]2[C@H](CO)O1)NCc1ccccc1F,i,-2.4
C[C@H]1CN([C@@H](C)CO)C(=O)c2c(c3ccccc3n2C)-c2ccccc2CO[C@H]1CN(C)C(=O)c1ccccc1,i,-2.2
C=CCOC(=O)[C@@H]1[C@H]2C(=O)O[C@H](c3ccccc3)[C@H](c3ccccc3)N2[C@H](c2ccc(OCCOC(=O)[C@@H]3C[C@@H]4C(=O)N[C@@H](CC(C)C)C(=O)N4[C@@H]3c3ccc(O)cc3)cc2)[C@@]12C(=O)Nc1ccc(I)cc12,i,-2.7
CNC[C@@H]1Oc2ccc(NS(=O)(=O)c3cccs3)cc2C(=O)N([C@H](C)CO)C[C@@H]1C,i,-3.8
Cn1cnc(S(=O)(=O)N[C@H]2C=C[C@H](CC(=O)Nc3ccccc3)O[C@@H]2CO)c1,i,-0.9
C[C@H]1CN([C@@H](C)CO)S(=O)(=O)c2ccc(-c3ccccc3)cc2O[C@H]1CN(C)CC1CC1,i,2.8
CCCC#Cc1ccc([C@H]2[C@H]3CN(C(=O)NC4CCCC4)CCCCN3[C@H]2CO)cc1,i,-4.7
Cc1ccc(S(=O)(=O)N(C)C[C@H]2Oc3c(NC(=O)Nc4ccc(C(F)(F)F)cc4)cccc3C(=O)N([C@@H](C)CO)C[C@@H]2C)cc1,i,1.0
O=C(NCCc1ccccc1)[C@@H]1N[C@@H]2c3ccc(-c4ccccc4)c(=O)n3C[C@@H]2[C@H]1CO,i,1.6
CC(C)NC(=O)NCC[C@@H]1CC[C@H](NS(=O)(=O)c2ccc(-c3ccccc3)cc2)[C@H](CO)O1,i,2.6
C[C@@H]1CN([C@@H](C)CO)C(=O)c2cc(NC(=O)Nc3ccc(F)cc3)ccc2O[C@H]1CN(C)S(=O)(=O)c1ccc(Cl)cc1,i,3.9
CO[C@@H]1CN(C)C(=O)c2cc(NC(=O)c3ccccc3)ccc2OC[C@@H](C)NC[C@H]1C,i,-1.6
C[C@@H](O)C#Cc1ccc([C@H]2[C@@H](CO)N3CCCCN(CC4CC4)C[C@@H]23)cc1,i,3.3
CCC(=O)N1[C@@H]2c3ccc(-c4ccc(F)cc4)c(=O)n3C[C@@H]2[C@@H](CO)[C@@H]1C(=O)NC1CCC1,i,0.2
O=C(C[C@@H]1C[C@H]2c3cc(NS(=O)(=O)c4ccc(F)cc4)ccc3O[C@H]2[C@H](CO)O1)NCc1cccnc1,i,-2.7
C[C@@H]1CN([C@H](C)CO)C(=O)c2cc(NS(=O)(=O)c3cccs3)ccc2O[C@@H](C)CCCCO[C@@H]1CN(C)C(=O)Cc1ccccc1,i,2.4
C[C@@H]1CCCCO[C@@H](CN(C)CC2CCCCC2)[C@@H](C)CN([C@H](C)CO)C(=O)c2cc(NC(=O)Nc3ccc4c(c3)OCO4)ccc2O1,i,-16&20

# (further entries)
SMILES,FGF22 binding,MLL AF4-AF9 inh
CCCNC(=O)N(C)C[C@@H]1Oc2cc(-c3ccc(C)cc3)ccc2S(=O)(=O)N([C@@H](C)CO)C[C@@H]1C,i,0.0
C[C@H](CO)N1C[C@H](C)[C@H](CN(C)C(=O)NC2CCCCC2)OCCCC[C@H](C)Oc2ccc(NS(=O)(=O)c3ccccc3)cc2C1=O,i,1.3
Cc1cc(C(=O)Nc2cccc3c2O[C@@H](CN(C)Cc2ccc4c(c2)OCO4)[C@@H](C)CN([C@@H](C)CO)C3=O)n(C)n1,i,-1.4
C[C@@H]1CN([C@@H](C)CO)C(=O)Cc2cc(NC(=O)CCCCCC(=O)Nc3ccccc3N)ccc2O[C@@H]1CN(C)CC1CC1,i,1.2

# Some of these compounds in order of heavy-atom count, falling.
SMILES,FGF22 binding,MLL AF4-AF9 inh
C[C@@H]1CN([C@H](C)CO)C(=O)c2cc(NS(=O)(=O)c3cccs3)ccc2O[C@@H](C)CCCCO[C@@H]1CN(C)C(=O)Cc1ccccc1,i,2.4
C[C@@H]1CN([C@@H](C)CO)C(=O)Cc2cc(NC(=O)CCCCCC(=O)Nc3ccccc3N)ccc2O[C@@H]1CN(C)CC1CC1,i,1.2
Cc1cc(C(=O)Nc2cccc3c2O[C@@H](CN(C)Cc2ccc4c(c2)OCO4)[C@@H](C)CN([C@@H](C)CO)C3=O)n(C)n1,i,-1.4

# Assay outcomes as filed in PubChem BioAssay.

# A portion of the library (hit frequency here may not be typical).
